High-throughput results (PubChem BioAssay)
A1 inh: inhibitors of A1; MEF A1-2A-BIM cells, caspase-Glo luminescence, 3 h; percent of clofoctol signal, DMSO as zero; caspase activation, % (test concentration not listed); actives 0.51% (n = 21,000);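 active = most replicate scores above 10, or exactly half above 10 with mean activity above 10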;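 also: effector caspase 3 and 7 activity cleaving a DEVD luciferin substrate; 50 nL library stock added to about 30 µL; numbers are from one replicate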
BJeLR viability: compounds reducing viability of BJeLR cells; BJeLR fibroblasts viability, CellTiterGlo ATP luminescence, 48 h; HRASV12, hTERT and SV40 LT/ST transformed; AID 2275; viability loss activity score, % (concentration not given with the values); actives 0.64% (n = 30,000); in the data active = viability loss activity score above about 50%; about a fifth of its hits are not listed in these tables;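 also: higher score means fewer live cells and less ATP luminescence; stock transfer was 50 or 100 nL into about 30 µL; 0% = vehicle wells and 100% = a reference killing control; one replicate is shown; the record names a cut of 85%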
Numbers without * were called inactive; nt = no result given.

SMILES	A1 inh	BJeLR viability
Cc1noc(C)c1S(=O)(=O)Nc1cccc2c1O[C@@H](CN(C)Cc1ccc3c(c1)OCO3)[C@@H](C)CN([C@H](C)CO)C2=O	nt	2.8
COc1ccc(NC(=O)Nc2ccc3c(c2)C(=O)N([C@@H](C)CO)C[C@@H](C)[C@@H](CN(C)C(=O)NC2CCCCC2)O3)cc1	0.7	1.0
C[C@H]1CN([C@@H](C)CO)C(=O)c2cccc(NS(=O)(=O)c3cn(C)cn3)c2O[C@H]1CN(C)Cc1ccc(C(=O)O)cc1	nt	1.6
COC(=O)c1cnn(-c2ccccc2)c1C=Nc1ccc(C)cc1	1.4	-3.8
C[C@@H]1CN([C@@H](C)CO)C(=O)c2cc(N(C)C)ccc2O[C@H]1CN(C)S(=O)(=O)c1ccc(F)cc1	0.0	1.7
C[C@H]1CN([C@@H](C)CO)C(=O)c2cc(NS(=O)(=O)c3cn(C)cn3)ccc2O[C@H]1CN(C)Cc1ccc(Oc2ccccc2)cc1	0.0	-3.7
C[C@@H]1CN([C@H](C)CO)C(=O)c2cccc(NS(=O)(=O)c3cn(C)cn3)c2O[C@@H]1CN(C)CC1CC1	nt	3.0
CCOC(=O)C1=C(S)N(C#N)C(=O)C(C#N)C12CCNCC2 (stereo unspecified)	-0.6	1.3
CCOC(=O)N1CCN(C(=O)C(NC(=O)c2ccc(C34CC5CC(CC(C5)C3)C4)cc2)C(C)C)CC1 (stereo unspecified)	nt	3.4
CC(C)NC(=O)Nc1ccc2c(c1)C(=O)N([C@@H](C)CO)C[C@@H](C)[C@H](CN(C)Cc1ccc(Cl)c(Cl)c1)O2	0.0	-1.6
Cc1noc(C)c1NC(=O)N(C)C[C@H]1Oc2ccc(NS(=O)(=O)c3ccc(F)cc3)cc2C(=O)N([C@@H](C)CO)C[C@@H]1C	0.8	3.7
c1ccc2c(c1)NC(c1ccc3c(c1)OCO3)S2 (stereo unspecified)	-6.8	72.0*
C[C@H](CO)N1C[C@H](C)[C@@H](CN(C)C(=O)Nc2ccc(F)cc2)Oc2c(NC(=O)c3cnccn3)cccc2C1=O	nt	-0.7
C[C@H](CO)N1C[C@H](C)[C@H](CN(C)C(=O)NC2CCCCC2)Oc2ccc(NS(C)(=O)=O)cc2C1=O	0.2	2.6
C[C@H]1CN([C@@H](C)CO)C(=O)c2cc(NS(=O)(=O)c3ccc(Cl)cc3)ccc2O[C@@H]1CN(C)Cc1ccncc1	0.4	4.3
C[C@H]1CN([C@@H](C)CO)C(=O)c2cccc(NC(=O)Nc3ccccc3)c2O[C@@H]1CN(C)C(=O)Nc1ccc(C(F)(F)F)cc1	nt	0.2
CC(C)NC(=O)C1CCC(=O)N1Cc1ccccc1Cl (stereo unspecified)	-0.6	-2.9
N#CC1=C(N)N(c2ccccc2)NC1(C(F)(F)F)C(F)(F)F	1.4	6.7
C[C@H]1CN([C@@H](C)CO)C(=O)c2cccc(NC(=O)Nc3ccccc3)c2O[C@H]1CN(C)S(=O)(=O)c1ccc(Cl)cc1	nt	-6.0
CNC[C@@H]1Oc2c(NC(=O)NC(C)C)cccc2C(=O)N([C@@H](C)CO)C[C@@H]1C	nt	-2.1
O=c1c(=O)n2c(nn1CN1CCOCC1)sc1ccccc12	0.6	-0.1
Cc1noc(C)c1NC(=O)N(C)C[C@H]1Oc2c(NC(=O)c3nc4ccccc4s3)cccc2C(=O)N([C@@H](C)CO)C[C@@H]1C	nt	-1.9
C[C@H](CO)N1C[C@H](C)[C@H](CN(C)CC2CCCCC2)Oc2ccc(NC(=O)CCCCCC(=O)Nc3ccccc3N)cc2C1=O	nt	4.4
O=C(Cc1ccc(Cl)cc1)NC1=NCCS1	nt	5.6
O=C(CSc1ncnc2sc(-c3ccccc3)cc12)c1ccc2c(c1)OCCO2	0.2	-1.8
COc1ccccc1OCCNC(=O)c1ccc2c3c(cccc13)CC2	0.7	-0.4
CC(C)NC(=O)N(C)C[C@@H]1Oc2ccc(NC(=O)Nc3ccc(C(F)(F)F)cc3)cc2C(=O)N([C@H](C)CO)C[C@@H]1C	1.4	-1.4
C/C(=N\O)c1cc(-c2ccccc2)c(C(F)(F)F)s1	0.8	-3.9
O=c1cc(-c2ccccc2)oc2cc(Cl)cc(Cl)c12	-2.7	-7.1
C=CC[C@H]1Cc2ccccc2[C@H](CC=C)N1	0.4	5.1

4 of the compounds above, as comma-separated lines:
structure,A1 inh,BJeLR viability
O=C(Cc1ccc(Cl)cc1)NC1=NCCS1,nt,5.6
C[C@H](CO)N1C[C@H](C)[C@H](CN(C)CC2CCCCC2)Oc2ccc(NC(=O)CCCCCC(=O)Nc3ccccc3N)cc2C1=O,nt,4.4
C/C(=N\O)c1cc(-c2ccccc2)c(C(F)(F)F)s1,0.8,-3.9
COc1ccccc1OCCNC(=O)c1ccc2c3c(cccc13)CC2,0.7,-0.4

(further entries)
SMILES	A1 inh	BJeLR viability
CSc1cccc(NC(=S)NCc2cccn2C)c1	0.4	-3.6
C[C@@H]1CN([C@@H](C)CO)C(=O)c2cccc(NC(=O)c3cnccn3)c2O[C@@H]1CN(C)S(=O)(=O)c1ccc(F)cc1	nt	5.3
COc1ccc(NC(=O)Nc2cccc3c2O[C@H](CN(C)C(=O)Nc2ccc4c(c2)OCO4)[C@H](C)CN([C@@H](C)CO)C3=O)cc1	nt	-2.0
C[C@@H]1CN([C@@H](C)CO)C(=O)c2cc(NC(=O)Cn3cnnn3)ccc2O[C@@H]1CN(C)C(=O)NC1CCCCC1	-0.3	1.6
C[C@H]1CN([C@@H](C)CO)C(=O)c2cccc(NC(=O)c3ccc(-c4nccs4)cc3)c2O[C@H]1CN(C)S(=O)(=O)c1cn(C)cn1	nt	2.5
COc1c(C)c(O)c(C)c(O)c1C(=O)CCc1ccccc1	0.2	2.8
CNS(=O)(=O)c1cc(-c2nnc(Nc3ccc4c(c3)OCO4)c3ccccc23)ccc1C	0.1	-0.6
CN1N=C2c3ccccc3CCC2C1c1ccc(C#N)cc1 (stereo unspecified)	0.5	5.1
Cc1ccccc1-n1ccc(=O)[nH]c1=O	0.0	-3.9
CCc1nnc(NC(=O)c2ccc(N3C(=O)C4C5C=CC(C5)C4C3=O)cc2)s1 (stereo unspecified)	0.3	-3.8
C[C@@H]1CN([C@@H](C)CO)C(=O)c2cc(NS(C)(=O)=O)ccc2O[C@H]1CN(C)Cc1ccc(C(F)(F)F)cc1	-0.7	-2.9
C[C@@H]1CN([C@@H](C)CO)C(=O)c2cc(NC(=O)Cc3ccccc3)ccc2O[C@@H]1CN(C)Cc1ccc(C(F)(F)F)cc1	0.3	0.7
C[C@@H]1CN([C@H](C)CO)C(=O)c2cc(NC(=O)Cn3cnnn3)ccc2O[C@@H]1CN(C)S(=O)(=O)c1cccs1	-1.3	0.4
COc1ccc(S(=O)(=O)N(C)C[C@@H]2Oc3ccc(NC(=O)NC4CCCCC4)cc3C(=O)N([C@H](C)CO)C[C@@H]2C)cc1	0.2	6.2
C[C@@H]1CN([C@@H](C)CO)C(=O)c2cccc(NC(=O)Nc3ccc4c(c3)OCO4)c2O[C@@H]1CN(C)Cc1ccc2c(c1)OCO2	nt	4.0
C[C@@H]1CN([C@H](C)CO)C(=O)c2cccc(NS(=O)(=O)c3cn(C)cn3)c2O[C@H]1CN(C)Cc1ccc(-c2ccccc2)cc1	nt	9.0
C[C@@H]1CN([C@@H](C)CO)C(=O)c2cc(NC(=O)C3CC3)ccc2O[C@@H]1CN(C)Cc1ccc(C(=O)O)cc1	-0.2	1.6
FC(F)(F)c1cc(-c2ccccc2)nc(N2CCN(c3ccccc3)CC2)n1	nt	6.2
CCCC(=O)NCc1nc2ccccc2n1C(C)c1ccccc1 (stereo unspecified)	0.5	-0.7
Cc1ccc(N(C(=O)c2ccccc2C)S(=O)(=O)c2ccc(Cl)cc2)cc1	0.9	-1.1
C[C@@H]1CN([C@H](C)CO)C(=O)c2cccc(NC(=O)Nc3ccccc3)c2O[C@@H]1CN(C)S(=O)(=O)c1ccc(Cl)cc1	nt	-1.2
C[C@@H]1CN([C@@H](C)CO)C(=O)c2cc(NS(=O)(=O)c3cccs3)ccc2O[C@@H]1CN(C)S(=O)(=O)c1cn(C)cn1	-0.6	-9.0
O=C(/C=C/c1ccccc1)OC[C@]12O[C@H]1[C@@H](O)[C@@H]1C=CO[C@@H](O[C@@H]3O[C@H](CO)[C@@H](O)[C@H](O)[C@H]3O)[C@@H]12	-0.6	1.5
C[C@@H]1CN([C@H](C)CO)C(=O)c2cc(NC(=O)Nc3ccc(F)cc3)ccc2O[C@@H]1CN(C)C(=O)Nc1ccc2c(c1)OCO2	0.1	-3.5
C[C@@H]1CN([C@H](C)CO)C(=O)c2cccc(NC(=O)Nc3ccccc3)c2O[C@@H]1CN(C)Cc1ccc(C(=O)O)cc1	nt	-1.0
N#Cc1c(N)c(C#N)c(=S)n(CC2CCCO2)c1N (stereo unspecified)	-0.2	3.5
C=CCN1C(=O)C2C3C=CC(C3)C2C1=O (stereo unspecified)	0.0	0.4
COc1ccc(NC(=O)Nc2ccc3c(c2)C(=O)N([C@@H](C)CO)C[C@@H](C)[C@H](CN(C)C(=O)Nc2ccc(OC)cc2)O3)cc1	-0.4	1.3
C[C@H](CO)N1C[C@H](C)[C@H](CN(C)C(=O)Nc2ccc3c(c2)OCO3)Oc2c(NC(=O)c3cnccn3)cccc2C1=O	nt	-2.1
C[C@H](CO)N1C[C@H](C)[C@H](CN(C)Cc2ccccc2)Oc2ccc(NC(=O)C3CCCCC3)cc2C1=O	-0.5	-4.0
Cc1noc(C)c1NC(=O)Nc1ccc2c(c1)C(=O)N([C@@H](C)CO)C[C@@H](C)[C@H](CN(C)S(=O)(=O)c1cn(C)cn1)O2	-0.5	-1.4
COc1cc2c(C(=O)NCCCN3CCN(C)CC3)cn(CC(C)C)c(=O)c2cc1OC	nt	-3.2
CCOc1ccc(-n2c(SCC(=O)NCc3ccco3)nc3c(c2=O)SCC3)cc1	nt	-5.9
COc1ccc(S(=O)(=O)N(C)C[C@@H]2Oc3c(NC(=O)NC4CCCCC4)cccc3C(=O)N([C@H](C)CO)C[C@@H]2C)cc1	nt	0.5
NC(=S)COc1ccccc1	0.2	1.7
CCOC(=O)N1CCN(CC(O)c2ccc3c(c2)CCN3C(C)=O)CC1 (stereo unspecified)	nt	-8.5
C[C@@H]1CN([C@@H](C)CO)C(=O)c2cccc(NC(=O)C3CCCCC3)c2O[C@@H]1CN(C)S(=O)(=O)c1ccc(Cl)cc1	nt	-7.1
C[C@H](CO)N1C[C@H](C)[C@H](CN(C)C(=O)Nc2cccc3ccccc23)Oc2ccc(NC(=O)C3CC3)cc2C1=O	0.8	-2.5
C[C@@H]1CN([C@H](C)CO)C(=O)c2cc(NC(=O)CCCCCC(=O)Nc3ccccc3N)ccc2O[C@@H]1CN(C)S(=O)(=O)c1cn(C)cn1	nt	-4.4
COCC(=O)Nc1cc(Sc2ccccc2)ccc1N=C(NC(C)=O)NC(C)=O	-0.4	3.4
C[C@H](CO)N1C[C@H](C)[C@@H](CN(C)Cc2ccc(C(F)(F)F)cc2)Oc2c(NS(=O)(=O)c3ccc(F)cc3)cccc2C1=O	nt	0.5
CCOC(=O)N1CCC(NS(=O)(=O)c2ccc3oc(=O)c4ncn(CC)c4c3c2)CC1	nt	3.8
Cc1ccc(-n2c(=O)[nH]cc(C(=O)N3CCc4ccccc43)c2=O)cc1	-0.2	2.2
CC(C)C1Cc2c(sc3nc(SCC(=O)Nc4ccccc4)nc(N)c23)CO1 (stereo unspecified)	0.5	-3.2
C[C@H]1CN([C@@H](C)CO)C(=O)c2cc(NC(=O)Nc3ccc4c(c3)OCO4)ccc2O[C@@H]1CN(C)S(=O)(=O)c1ccc(F)cc1	-0.6	-1.2
COC(=O)C1=C(N)Oc2cc(C)oc(=O)c2C1c1cccnc1 (stereo unspecified)	-0.3	-1.2
COc1ccc(S(=O)(=O)N(C)C)cc1	1.3	4.6
Clc1ccc(CSCc2nc3ccccc3[nH]2)cc1	-0.3	-1.6
CCCC(=O)Nc1cc(C(=O)O)ccc1S(=O)(=O)c1ccc(Cl)cc1	0.2	9.7
C[C@H]1CN([C@@H](C)CO)C(=O)c2cc(NC(=O)NC3CCCCC3)ccc2O[C@H]1CN(C)Cc1ccc(-c2ccccc2)cc1	-0.4	-2.9
CC(C)NC(=O)Nc1ccc2c(c1)C(=O)N([C@H](C)CO)C[C@H](C)[C@H](CN(C)Cc1ccc(-c3ccccc3)cc1)O2	-0.5	5.4
CC1CCCCN1CCCNC(=O)Cn1cccc1C(=O)c1ccccc1 (stereo unspecified)	1.1	-3.0
CC(C)NC(=O)Nc1ccc2c(c1)C(=O)N([C@@H](C)CO)C[C@@H](C)[C@@H](CN(C)S(=O)(=O)c1ccc(Cl)cc1)O2	0.2	2.1

Laid out differently: 4 of the compounds above.
canonical_smiles | A1 inh | BJeLR viability
COc1ccc(S(=O)(=O)N(C)C)cc1 | 1.3 | 4.6
C[C@H](CO)N1C[C@H](C)[C@@H](CN(C)Cc2ccc(C(F)(F)F)cc2)Oc2c(NS(=O)(=O)c3ccc(F)cc3)cccc2C1=O | nt | 0.5
CC(C)NC(=O)Nc1ccc2c(c1)C(=O)N([C@H](C)CO)C[C@H](C)[C@H](CN(C)Cc1ccc(-c3ccccc3)cc1)O2 | -0.5 | 5.4
CCOC(=O)N1CCC(NS(=O)(=O)c2ccc3oc(=O)c4ncn(CC)c4c3c2)CC1 | nt | 3.8

An excerpt from above in order of the A1 inh value, ascending.
mol	A1 inh
Cc1ccc(-n2c(=O)[nH]cc(C(=O)N3CCc4ccccc43)c2=O)cc1	-0.2
CC(C)NC(=O)Nc1ccc2c(c1)C(=O)N([C@@H](C)CO)C[C@@H](C)[C@@H](CN(C)S(=O)(=O)c1ccc(Cl)cc1)O2	0.2
CC1CCCCN1CCCNC(=O)Cn1cccc1C(=O)c1ccccc1 (stereo unspecified)	1.1

Some of the compounds tested, so the mix of outcomes need not match the whole.
